Compound activity from PubChem.
ClpP mod: qHTS Assay for Activators of ClpP | purified B. subtilis ClpP, FRET peptide cleavage, 20 min | ATP-dependent Clp protease proteolytic subunit (Bacillus subtilis (strain 168)), P80244 | 340,000 compounds, 1.9% hits | Potency, µM (highest dose often 57.5 µM), without a hit: at the top dose activity change, negative = active | AID 651965, 2013; active = well fitted falling curve with a large enough effect; inconclusive = small, poorly fitted or top-dose-only effect; inactive = no such curve, though single readings can be large or run the other way; further: potency means the concentration at half of the fitted maximal effect; the source files actives as falling curves though it sought activators and does not explain the sign; nearly all actives have a fitted effect of over 65% in size; many hits overshoot -100%
Target sequence (P80244 whole entry, looked up): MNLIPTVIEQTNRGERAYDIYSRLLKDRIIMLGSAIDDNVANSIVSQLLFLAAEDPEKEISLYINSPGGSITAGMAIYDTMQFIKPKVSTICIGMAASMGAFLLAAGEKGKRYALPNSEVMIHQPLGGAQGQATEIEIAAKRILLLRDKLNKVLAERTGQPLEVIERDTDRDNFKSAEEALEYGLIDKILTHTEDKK
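ClpP 10 microg/mL final, pH 8 Tris/KCl buffer with BSA, glycerol, Tween-20; compound pinned in; FRET-FV substrate; RT 20 min; Ex320/Em430; ΔFRET vs ADEP 5.8 microM, DMSO, no enzyme.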
TRPML1 agonist: qHTS for Agonists of the Human Mucolipin Transient Receptor Potential 1 (TRPML1); TRPML1-expressing cells, Ca2+ dye fluorescence, FDSS; host cell line not named in the record; reference of the full effect not given here; activation, % (test concentration not listed); Mucolipin-1 (Homo sapiens), Q9GZU1; 410,000 compounds, 0.12% hits; in the data active = activation above about 50%; inconclusive = about 30% to 50%; inactive = below about 30%; further: 0% is about no effect; the text of the record puts the active cut at 80%
Target sequence (Q9GZU1 whole entry, looked up): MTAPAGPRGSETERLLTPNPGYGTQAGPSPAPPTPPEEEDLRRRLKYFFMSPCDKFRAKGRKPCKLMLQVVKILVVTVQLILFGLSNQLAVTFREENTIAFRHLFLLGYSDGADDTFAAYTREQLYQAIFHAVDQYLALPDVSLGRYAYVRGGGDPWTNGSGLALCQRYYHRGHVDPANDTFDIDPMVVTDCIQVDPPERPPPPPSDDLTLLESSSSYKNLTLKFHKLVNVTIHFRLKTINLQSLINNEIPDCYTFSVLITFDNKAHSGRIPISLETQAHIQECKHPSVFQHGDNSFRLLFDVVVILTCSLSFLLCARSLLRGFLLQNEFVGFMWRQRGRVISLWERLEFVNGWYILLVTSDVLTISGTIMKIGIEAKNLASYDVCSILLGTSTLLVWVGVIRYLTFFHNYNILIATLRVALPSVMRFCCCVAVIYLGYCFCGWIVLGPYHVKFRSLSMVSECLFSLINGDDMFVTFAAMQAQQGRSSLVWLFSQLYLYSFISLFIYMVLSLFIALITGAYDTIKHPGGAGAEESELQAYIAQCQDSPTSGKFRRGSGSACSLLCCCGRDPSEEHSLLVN
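TRPML1-DL cells, Tet-induced overnight (~16 h, 37 degrees C), loaded 45-90 min at room temperature with Ca8 no-wash calcium dye plus quencher. FDSS fluorescence: 10 s baseline, compound pin-transfer, 110 s agonist read, then EC80 54-4 (4uM final) and 110 s antagonist read.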
TRPV1 PAM: HTS Assay for Compounds that Act as Potentiators of the Vanilloid Receptor 1. 320,000 compounds, 0.02% hits. potentiation, % at 8.33 µM. TRPV1-expressing cells, Fluo-8 calcium influx, capsaicin EC20 potentiation; host cell line not named in the record; control for the full effect not named in the record; active means potentiation above 80%; inconclusive means 30% to 80%; inactive means below 30%; further: 0% is about no effect
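Fluo-8 calcium influx in TRPV1-expressing cells, kinetic read (ex 480/em 520 nm). Compound added and read 3 min for agonist activity, followed by capsaicin at EC20 final and 2 min further read for enhancement.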
Sfp PPTase inh: qHTS Assay for Inhibitors of Bacillus subtilis Sfp phosphopantetheinyl transferase (PPTase) | Potency, µM, without a hit: max response, negative = inhibition, usual class: inhibitors | 4'-phosphopantetheinyl transferase ffp (Bacillus subtilis), Q9F4F7 | 310,000 compounds, 3.5% hits | AID 1490, 2009 | Biochemical Sfp PPTase activity, qHTS; active means well fitted inhibition curve with a large enough effect; inconclusive means small, poorly fitted or top-dose-only effect, or another doubt; inactive means no such curve, though single readings can be large or run the other way;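 further: the enzyme is Sfp with the accession as filed and its product quenches rhodamine fluorescence; potency means the concentration at half of the fitted maximal effect; 0% = enzyme reaction without inhibitor and -100% = no enzyme wells; top concentration of the series not given in the record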
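Sfp 15 nM + cpd, 15 min RT; start w/ rhodamine-CoA 5 uM, BHQ-2-YbbR 12.5 uM (final); 50 mM Hepes pH 7.6, 10 mM MgCl2, 0.01% NP-40, 0.01% BSA; read 525/598 nm at 0 and 30 min.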
Menin MLL FP FL: qHTS Assay for Inhibitors Targeting the Menin-MLL Interaction in MLL Related Leukemias: Competition With Fluorescein Labeled MLL-derived Peptide; Fluorescence polarization, fluorescein-MLL peptide displacement from menin; FP activity change, % at 61.4 µM; 290,000 tested, under 10 active; inconclusive = falling polarisation curve, or a change in total fluorescence; inactive = total fluorescence flat and polarisation flat or rising; no compound was filed as active; the % refers to the polarisation; negative = inhibition;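 further: % of control where 0% means no effect; inhibitors lower the polarisation; unlabelled MLL peptide was the positive control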
PINK1 modulator: A Quantitative High throughput Screen to Identify Chemical Modulators of PINK1 Expression. PINK1 immunofluorescence, high-content cytometry, 24 h. Potency, µM (series often up to 76.6 µM), without a hit: top-dose activation (PINK1 increase), most hits filed as activators. 410,000 compounds, 0.2% hits; active = well fitted activation curve with a large enough effect; inconclusive = small, poorly fitted or top-dose-only effect; inactive = flat fitted curve, though single readings scatter; cell line not stated here;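 further: potency means the concentration at half of the fitted maximal effect; % of control where 0% means no effect; nearly all actives have a fitted effect of over 65% in size; a mitochondrial uncoupler was the plate control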
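PINK1 protein, normally rapidly degraded, was detected by immunofluorescence after 24 hour compound treatment of a stable cell line. Titration data (5 concentrations) came from laser-scanning cytometry, with CCCP-treated wells as controls.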
TRPML1 inh: qHTS for Inhibitors of the Human Mucolipin Transient Receptor Potential 1 (TRPML1) | Mucolipin-1 (Homo sapiens), Q9GZU1 | TRPML1-inducible cells, Ca2+ dye fluorescence, FDSS; active compounds read low; inhibition of EC80 agonist-evoked calcium signal | activity change, negative = inhibition, % (test concentration not listed) | 390,000 compounds, 0.02% hits | AID 624415, 2012; in the data active means activity change below about -50%; inconclusive means about -30% to -50%; inactive means above about -30%;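 further: stimulus is agonist 54-4 at its EC80 concentration; on the % scale 0 is the no-effect control and ±100 the full control effect; compound concentration not given in the record; the text of the record puts the active cut at -80%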
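Tet-induced TRPML1-DL cells loaded with Ca8 no-wash calcium dye were read kinetically on FDSS. Compound addition was followed by EC80 agonist 54-4 (4 uM final); inhibition was read over 110 s.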
* hit, by the source's call; u = inconclusive; x = no result given; [ ] = dose if it differs, or a comment.

SMILES	ClpP mod	TRPML1 agonist	TRPV1 PAM	Sfp PPTase inh	Menin MLL FP FL	PINK1 modulator	TRPML1 inh
O=C1OC(/C=C/c2ccc(Cl)cc2Cl)=NC/1=C\c1cccs1	-1.9%	1.8	29	6%	u	-3.6%	9
O=C(COc1ccccc1C(=O)Nc1cccnc1)Nc1ccc(Br)cc1	0.1%	-0.9	x	x	x	3.3%	x
COc1ccc(NC(=O)c2oc3ccccc3c2NC(=O)c2ccco2)c(OC)c1	357%	1.5	20	25µM*	-1.4	u	5
CC(C)CCNC(=O)CN(C(=O)CCC(=O)Nc1nccs1)C1CCCCC1	0.3%	-1.5	2	0%	2.2	0.8%	11
CCN(CC)C(=O)[C@H]1C[C@H](CC(=O)NCc2ccc(OC)c(OC)c2)C(=O)N2CCc3c([nH]c4cc(-c5ccco5)ccc34)[C@]12C	4.7%	-0.6	x	x	x	0.9%	-10
O=C(Oc1cccnc1)c1ccc(Cl)c(Cl)c1	1.5%	1.2	12	-7%	0.0	12%	-6
C(/C=C/c1ccccn1)=C\c1ccccc1	-6.1%	2.2	x	x	x	1.8%	2
Cc1nc2nncn2c(NCc2ccc(F)cc2)c1C	-1.3%	0.0	x	x	x	0.3%	5
CCN(CC(=O)Nc1ccc(NC(C)=O)cc1)C(=O)CCCN1C(=O)c2ccccc2C1=O	-0.9%	-0.5	11	x	x	0.6%	-18
CC1CCCCN1S(=O)(=O)CCNC(=O)c1ccccc1 (stereo not drawn)	x	0.9	5	x	x	-4.1%	5
Cc1ccc(-c2csc(N)n2)s1	-1.9%	0.2	-6	35µM*	7.0	-1.2%	25
O=C(COC(=O)c1cc(=O)c2ccccc2o1)NC1CCCCC1	x	1.6	0	16%	-0.4	-0.5%	-13
COc1ccc(N2CCN(C(=S)Nc3ccc(S(N)(=O)=O)cc3)CC2)cc1	x	-0.3	-16	11µM*	-2.5	3.7%	-19
O=C(NNS(=O)(=O)c1ccc(F)cc1)c1cnn(-c2ccccc2)c1C(F)(F)F	-0.2%	0.1	21	3%	1.2	-1.6%	37
O=C(Nc1ccc(Br)cc1F)C(NS(=O)(=O)c1cccc2nsnc12)c1ccccc1 (stereo not drawn)	-1.8%	0.5	x	x	x	-0.8%	-9
C#Cc1ccc([C@@H]2C=C(C(=O)N3CCN(Cc4ccccc4)CC3)O[C@H](OCC)[C@H]2CCCO)cc1	1.1%	-1.2	5	2%	-1.6	-1.0%	0
COc1ccccc1N1CCNC(C)C1=O (stereo not drawn)	-2.0%	-0.2	26	1%	-5.9	-0.6%	2
CC1=C(C(=O)OC(C)C)C(c2ccc(C)o2)NC(=O)N1 (stereo not drawn)	-1.4%	-0.4	3	4%	3.9	0.5%	2
COc1ccccc1OCCC(=O)NCc1ccc2c(c1)OCO2	x	0.3	5	5%	-3.8	-0.7%	-7
CC1CCCCN1CC(=O)c1c[nH]c2ccccc12 (stereo not drawn)	-0.2%	-1.0	9	4%	-3.9	-0.6%	-14
Cc1cc(C(=O)CN2CC(C)OC(C)C2)c(C)n1-c1ccccc1 (stereo not drawn)	0.2%	-1.0	20	7%	-0.1	0.3%	0
CC(C)(C)n1c(=O)[nH]c2c(c1=O)CCC2	0.6%	-0.5	13	13%	0.4	0.2%	-7
O=C(O)c1ccc2nc(-c3cc4cc(F)ccc4oc3=O)[nH]c2c1	-21%	0.3	x	x	x	4.8%	4
CCCCOc1cccc(-c2cc(C(=O)NNC(=S)NCC)c3ccccc3n2)c1	16%	0.8	-14	16%	1.3	0.7%[38.3 µM]	-13
O=C(NCc1cccnc1)c1cccc(S(=O)(=O)N2CCOCC2)c1	-0.3%	0.5	-9	18%	-1.6	-2.2%	-4
Additional results follow:
SMILES	ClpP mod	TRPML1 agonist	TRPV1 PAM	Sfp PPTase inh	Menin MLL FP FL	PINK1 modulator	TRPML1 inh
CCCCOc1ccc(C2C3CN(C(=O)OCC)CC=C3C(C#N)=C(N)C2(C#N)C#N)cc1OC (stereo not drawn)	0.4%	3.2	14	-13%	u	20%[38.3 µM]	35
CCCNC(=O)c1cnc2sc(N3CCCCC3)nn2c1=O	4.1%	-0.8	x	x	x	5.1%	0
COc1cc2c(cc1OC)CN(CC(=O)NC(=O)NCc1ccco1)CC2	-8.8%	1.6	-20	-1%	2.5	0.5%	-11
COc1ccc(-c2cc(C(F)(F)F)nc(N3CCN(C)CC3)n2)cc1	-14%	0.0	-12	5%	3.1	10%	49
COc1cc(NC(=O)CN(C)S(=O)(=O)c2cccs2)cc(OC)c1	1.2%	-0.8	-3	7%	1.0	1.0%	-4
COc1c(C)cc(S(=O)(=O)N2CCOCC2)c(C)c1C	0.4%	-0.3	8	15%	-4.2	-0.4%	79
CCc1ccc(C(=O)C(C)OC(=O)Cc2n[nH]c(=O)c3ccccc23)cc1 (stereo not drawn)	0.6%	2.1	15	2%	x	1.5%	-17
Cc1cccc(C)c1NC(=O)C1(C)CCC(=O)N1CCc1c[nH]c2ccccc12 (stereo not drawn)	-4.3%	-0.3	x	x	x	-1.3%	x
Cc1c(NC(=O)COc2cccc3c2OC(C)(C)C3)c(=O)n(-c2ccccc2)n1C	-0.1%	2.1	10	20%	-5.7	-0.8%	34
O=C(CCc1ccncc1)N1CCCC(Nc2ccc(F)c(F)c2)C1 (stereo not drawn)	1.4%	0.3	-5	11%	x	0.3%	-12
CC(C)OC(=O)CC(=O)CSc1nc2c(cc1C#N)CCCCC2	309%	0.0	-14	-4%	5.5	1.2%	-2
c1ccc(OCc2nc(-c3ccccc3)no2)cc1	1.1%	1.4	-7	6%	-0.3	1.0%	26
Cc1cc(Cl)ccc1C(=O)C1CCCN(C(=O)c2cnsn2)C1 (stereo not drawn)	0.9%	1.9	-13	1%	1.0	-0.1%	14
COc1ccccc1CN(C)CC(=O)NC(=O)NC1CCCCC1	-0.7%	1.3	-6	x	x	0.6%	-10
Cc1ccccc1-n1ccnc1SCC(=O)NCc1ccco1	-2.2%	0.4	1	3%	4.6	0.5%	-7
COc1cccc(C(=O)NCCS(=O)(=O)N2CCCC2)c1	-9.5%	0.9	-4	x	x	0.5%	28
O=C(c1n[nH]c2ccccc12)N1CCCCC1	1.5%	-0.5	u	16%	4.7	-1.3%	0
O=C(NC(=S)Nc1ccc([N+](=O)[O-])cc1)c1ccco1	1.7%	0.0	x	x	x	-0.2%	-1
Cc1cccc(C(=O)NC(=O)Nc2c(C)cc(C)nc2C)c1	x	0.5	0	25%	0.5	0.7%	-8
Cc1cc(Cl)c(S(=O)(=O)N2CCCCCC2)cc1OCC(=O)NC1CCCCC1	0.5%	0.3	-11	12%	-0.5	x	-13
O=C(c1c(F)cccc1F)N(C1CCCCC1)C1CCCCC1	1.7%	15	-15	25%	-0.6	u	2
O=c1[nH][nH]c(-c2ccccc2)c1C=Nc1ccc(OC(F)(F)F)cc1	1.7%	-0.5	-20	19%	-1.2	-0.3%	12
Cc1ccccc1Nc1sc(C(=O)Nc2cccc(Cl)c2)c(N)c1C(N)=O	x	0.5	5	-4%	2.7	1.3%	27
CCOc1ccc(CCNC(=O)COC(=O)c2sccc2C)cc1OCC	1.1%	-0.5	1	x	x	1.6%	-23
COc1ccc(NC(=O)CCN2CCN(S(=O)(=O)c3ccc(Cl)cc3)CC2)cc1	0.8%	0.5	8	11%	5.1	x	11

Single records, from the list above. Order of screens: ClpP mod	TRPML1 agonist	TRPV1 PAM	Sfp PPTase inh	Menin MLL FP FL	PINK1 modulator	TRPML1 inh
`Cc1ccccc1-n1ccnc1SCC(=O)NCc1ccco1` in the list: -2.2%	0.4	1	3%	4.6	0.5%	-7
`Cc1cccc(C)c1NC(=O)C1(C)CCC(=O)N1CCc1c[nH]c2ccccc12` (stereo not drawn) in the list: -4.3%	-0.3	x	x	x	-1.3%	x

(list continues)
SMILES	ClpP mod	TRPML1 agonist	TRPV1 PAM	Sfp PPTase inh	Menin MLL FP FL	PINK1 modulator	TRPML1 inh
COc1ccc(Cl)cc1NS(=O)(=O)c1cc(Br)cc2c1N(C(=O)C1CC1)CC2	3.2%	-0.3	x	x	x	0.7%	-11
O=C(c1ccco1)N(Cc1cccnc1)c1nc2c(F)cc(F)cc2s1	-14%	1.4	x	x	x	-0.2%	27
O=Cc1c(NCc2ccc(Cl)cc2)c2ccccc2[nH]c1=O	0.4%	x	-12	5%	3.2	0.7%	x
COc1ccc(C2=NOC(C(=O)Nc3c(C)n(C)n(-c4ccccc4)c3=O)C2)cc1 (stereo not drawn)	-0.3%	-0.8	7	-5%	3.0	0.3%	-5
COc1ccc(CCNCc2c(C(=O)O)c(C)n(Cc3c(F)cccc3Cl)c2C)cc1OC	-1.6%	0.4	x	x	x	-1.5%	-15
CC(C)CN1CC2(CCN(C(=O)c3cnccn3)CC2)C1	x	x	x	9%	-3.9	2.8%	x
Cc1noc(C)c1COc1cccc(C(=O)OC(C)C(=O)Nc2c(C)n(C)n(-c3ccccc3)c2=O)c1 (stereo not drawn)	x	0.2	5	1%	6.2	0.9%	2
C=CCn1cc(C(=O)NCc2cccnc2)c(=O)c2cc(S(=O)(=O)N(CC)CC)ccc21	-13%	0.9	29	11%	5.4	1.6%	-2
COc1ccc(C(CNC(=O)COc2cccc(C)c2)N2CCCC2)cc1 (stereo not drawn)	-1.1%	-1.4	-9	x	x	1.9%	-4
O=C(N/N=C/c1cccnc1)C1CCCCC1	-0.2%	-0.3	8	6%	-1.0	4.8%	-13
O=C(COC(=O)c1ccc(Br)o1)NCc1ccc(F)cc1	-1.3%	0.3	-33	x	x	-1.2%	29
Cc1ccc(NC(=O)c2c(C)nn(-c3ccccc3)c2-n2cccc2)c(Cl)c1	-6.1%	-0.6	x	x	x	0.8%	-14
COc1ccc(-c2c(-c3cc(OC)cc(OC)c3)n(C)c3ccc(-c4ccc(OC)c(F)c4)cc23)cc1	3.9%	-0.4	x	x	x	2.2%	27
COCCNC(=O)Cn1cnc2c(cnn2-c2ccc(C)cc2)c1=O	x	0.4	-16	20%	0.3	-0.7%	4
